HSV replic up – increases HSV replication in cells | HSV replication augmentation in cells, fold increase | maximum fold increase | 0.005% of 220,000 active | AID 1956;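 active means peak rise of 1.5-fold or more in the series; tested in PC3 cells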;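 further: first round at 10 µM; read as green reporter fluorescence; hits show the peak of a series up to 25 µM; 1 = signal of infected wells without compound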
PKD1 kinase inh – inhibitors of human PKD1 kinase. Q15139. PKD1 kinase fluorescence polarization assay. inhibition, %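 (about 10 µM by stock and volumes)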. 0.056% of 200,000 active;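 active means inhibition of 50% or more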;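 further: controls were vehicle for no effect and a reference inhibitor for full effect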
GALR2 ag – activates the human galanin receptor 2. GALR2-expressing cells, agonist activation read-out. activation, %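 (tested at 5 µM)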. 0.48% of 140,000 active;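 active means above mean plus 3 SD of all compounds, about 5% in these data, not always enough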;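 further: 0% = vehicle buffer wells and 100% = reference agonist at full effect; tested in CHO reporter cells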
Target sequence (O43603 whole entry, looked up): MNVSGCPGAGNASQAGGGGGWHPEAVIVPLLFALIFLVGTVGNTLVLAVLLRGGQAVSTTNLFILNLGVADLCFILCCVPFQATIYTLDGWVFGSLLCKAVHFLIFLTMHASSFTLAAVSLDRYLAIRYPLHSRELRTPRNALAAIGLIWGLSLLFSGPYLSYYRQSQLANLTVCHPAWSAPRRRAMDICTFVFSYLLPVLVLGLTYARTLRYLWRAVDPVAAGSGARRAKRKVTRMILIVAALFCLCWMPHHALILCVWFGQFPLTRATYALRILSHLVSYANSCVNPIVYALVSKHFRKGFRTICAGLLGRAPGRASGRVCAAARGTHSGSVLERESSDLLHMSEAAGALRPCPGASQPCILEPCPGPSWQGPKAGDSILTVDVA
INS promoter inh – TRM-6 insulin promoter activity inhibition; inhibition, % at 2 µM; AID 1273; 0.9% of 130,000 active; TRM-6 cells (human fetal islet line), insulin promoter-eGFP reporter, imaging; reporter expression induced with tamoxifen;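 active means inhibition above the mean plus 3 SD, with well images judged a real hit on visual review, cut at about 60% in these data, passing the limit was not always enough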
RGS16-Gao – RGS16-Galphao interaction regulator (human) | O15492+P09471 | bead-based flow cytometry RGS16-Galphao binding, fluorescence; actives lie on both sides | binding response (% of control), % at 10 µM | 0.38% of 220,000 active;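 active means below 25% or above 175%, edge rows of some plates excepted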;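 further: Galphao activated by GDP with aluminum fluoride before binding; 100% = wells without compound and 0% = beads without RGS; some results beyond the cut were filed as inactive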
Target sequence (O15492 whole entry, looked up): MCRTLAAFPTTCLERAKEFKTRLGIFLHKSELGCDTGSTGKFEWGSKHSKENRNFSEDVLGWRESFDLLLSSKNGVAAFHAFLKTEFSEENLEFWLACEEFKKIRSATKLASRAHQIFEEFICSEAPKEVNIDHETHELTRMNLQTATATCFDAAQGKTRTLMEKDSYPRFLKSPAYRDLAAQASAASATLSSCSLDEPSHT
Target sequence (P09471 whole entry, looked up): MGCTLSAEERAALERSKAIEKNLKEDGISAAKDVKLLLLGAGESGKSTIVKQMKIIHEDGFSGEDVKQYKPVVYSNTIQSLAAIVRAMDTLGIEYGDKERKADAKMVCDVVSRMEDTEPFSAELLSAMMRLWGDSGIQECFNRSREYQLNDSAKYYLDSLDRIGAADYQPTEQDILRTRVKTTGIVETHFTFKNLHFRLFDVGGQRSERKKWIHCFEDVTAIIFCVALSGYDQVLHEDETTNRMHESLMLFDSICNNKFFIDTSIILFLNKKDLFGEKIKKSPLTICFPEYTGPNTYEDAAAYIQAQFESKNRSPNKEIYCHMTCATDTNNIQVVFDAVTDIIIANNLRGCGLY
INS promoter inh cell count – also measured in INS promoter inh; calls as there; normalized cell count, %; measured here: cell count, toxicity; reference of the scale not given here;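 cells exposed to compound for 48 h; stained nuclei by imaging scaled within each plate; lower means fewer cells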
HSV replic up primary fold – also measured in HSV replic up; calls as there; fold increase; compound at 10 µM; measured here: primary screen fold increase 10 uM; tested in PC3 cells;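 GFP signal in the first replicate; 1 = infected wells without compound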
Starred values were filed as active, the others as inactive; i = inactive; . = not tested or not shown.

Values run as follows: HSV replic up	HSV replic up primary fold	PKD1 kinase inh	GALR2 ag	INS promoter inh	INS promoter inh cell count	RGS16-Gao
CN1C(=O)C(CC(=O)Nc2ccccc2)S/C1=N/c1nccs1 (stereo not drawn)
 : i	0.86	0	.	.	.	106
CN(C(=O)COc1ccc(C(C)(C)C)cc1)C1CCS(=O)(=O)C1 (stereo not drawn)
 : i	0.63	-7	-3.9	38	111	104
Cc1nnc2ccc(N3CCN(c4cccc(C(F)(F)F)c4)CC3)nn12
 : i	0.99	-5	-0.4	57	155	103
Cc1nn(Cc2c(Cl)cccc2Cl)c(C)c1NC(=O)CCCn1nc(C)c([N+](=O)[O-])c1C
 : i	1.1	-7	-0.3	40	108	106
CCCCC(=NCCO)C1=C(O)C(C(=O)OC)C(C)(C)CC1=O (stereo not drawn)
 : i	0.97	0	0.5	-32	70	92
CC1(C)CC(=O)C2=C(C1)NC(=O)CC2c1ccccc1F (stereo not drawn)
 : i	0.87	-4	-3.0	.	.	113
Cc1cccc(C(=O)N2CCc3ccccc3C2)c1[N+](=O)[O-]
 : i	1.2	-6	.	24	128	107
Cc1ccc(CCN2CC(C(=O)NCCCN(C)Cc3ccccc3)CC2=O)cc1 (stereo not drawn)
 : i	0.94	-5	-0.9	.	.	156
Cc1ccc(/C=N/NC(=O)Cn2cnc3ccccc32)cc1
 : i	0.88	0	.	.	.	87
COc1ccc(N(CN2C(=O)c3ccccc3C2=O)C(=O)COc2ccc(Cl)cc2Cl)cc1
 : i	0.97	7	-0.9	.	.	102
COc1ccc(CCn2c(=N)c(C(=O)NCc3ccco3)cc3c(=O)n4ccccc4nc32)cc1
 : .	.	6	0.4	13	114	95
COc1ccc(/C=C/c2nnc(NC(=O)COc3ccccc3)s2)cc1
 : i	0.93	.	.	.	.	105
N#CCCN1CCN(C(=S)c2ccc(-c3ccc(Cl)cc3)o2)CC1
 : i	0.97	-5	-0.8	7	134	113
Nc1nnnn1/N=C/c1ccccc1OCc1ccccc1
 : i	1	-3	0.6	19	86	106
N#CCCN(CCC#N)C(=S)NC1CC2C=CC1C2 (stereo not drawn)
 : i	1.1	.	.	.	.	104
CCN1C(=O)/C(=c2\o/c(=C3\C=Cc4ccccc4N3CC)c(=O)n2CC)SC1=S
 : i	0.91	4	-2.0	.	.	99
COc1ccccc1C(=O)Nc1ccc2c(c1)nc(CN1CCN(C(C)=O)CC1)n2C
 : i	0.99	3	-1.0	7	118	105
CN(C)S(=O)(=O)c1ccc(Cl)c(NC(=O)CN2CCCCCC2)c1
 : i	0.85	3	.	35	70	106
CN(Cc1ccc2nonc2c1)Cc1nc(Cc2cccc(F)c2)no1
 : i	0.95	-3	.	.	.	116
CC1(C)CC(=O)CC(C)(C)N1OC(=O)c1ccco1
 : i	0.9	-1	-1.3	-39	94	99
CN1CCN(S(=O)(=O)c2cc([N+](=O)[O-])ccc2N/N=C/c2ccc(Cl)cc2)CC1
 : i	1.1	3	-0.1	.	.	109
C=CCn1c(Cc2ccc(OC)cc2)nnc1SCC(=O)NCCc1ccccc1
 : i	1.3	3	-2.0	-21	229	100
COCCN1Cc2cccc(C(=O)NC(C)CCc3ccco3)c2C1=O (stereo not drawn)
 : i	0.94	-1	.	0	132	90
CC(=O)Nc1sc2c(c1C(c1ccc(Cl)cc1)N1CCOCC1)CCCC2 (stereo not drawn)
 : i	0.93	1	-2.0	-104	91	96
Cc1cccc(C)c1OCC(=O)NNC(=O)c1ccoc1C
 : i	0.84	9	-1.6	-4	115	96
O=C1C2C3C=CC(C3=C3CCCCC3)C2C(=O)N1Cc1ccccc1 (stereo not drawn)
 : i	1	-8	-0.1	.	.	100
Cc1ccc(NC(=O)CS(=O)CC(=O)N(CC(=O)NC2CCCC2)c2cccc(C)c2C)cc1 (stereo not drawn)
 : i	0.78	1	-1.1	-50	62	103
CCOC(=O)N1CCN(C(=O)c2ccc(OCC)c(OCC)c2)CC1
 : i	0.93	0	-1.1	-71	134	103
O=S1(=O)CCN(Cc2ccc(Cl)c(Cl)c2)CC1
 : i	1.1	-8	0.7	-4	124	103
Cc1ccc([N+](=O)[O-])cc1NC(=O)c1ccc2c(c1)OCO2
 : i	1.1	7	.	.	.	78
Cc1ccc(CC(NC(=O)c2ccccc2)C(=O)NC(Cc2ccccc2)C(=O)O)cc1 (stereo not drawn)
 : i	1.1	-5	.	33	102	103
CCOC(=O)C(/C=C(\C#N)C(=O)OCC)=C(/N)N1CCN(c2ccc(Cl)cc2)CC1
 : i	0.83	-1	-1.4	-21	136	103
O=C(NCCc1nc(-c2ccccc2)cs1)c1ccc(Br)cc1
 : i	0.94	-16	-1.6	-4	146	107
COc1ccc([N+](=O)[O-])cc1NC(=O)c1ccc(C)o1
 : i	0.93	-1	-1.7	-78	105	93
COc1ccc2[nH]c(=O)c(CN(C(=O)NC3CCCCC3)C3CCCCC3)cc2c1
 : i	0.72	-2	-0.6	-63	97	100
Cc1ccsc1C(=O)Nc1nnc(-c2ccco2)o1
 : i	0.86	-22	-0.7	.	.	101
Cc1nc2sc(C(=O)Nc3ccccc3Cc3ccccc3)c(C)c2c(=O)[nH]1
 : i	1	.	.	.	.	105
CC(C)[C@H](N)c1nnc(SCc2ccc(Cl)cc2)o1
 : i	0.91	-12	-1.8	-9	121	110
CC(C)C[C@H](NC(=O)CCCn1nnc2ccccc2c1=O)C(=O)O
 : i	0.96	.	.	.	.	97
Cc1ccc(NC(=O)Nc2nnc(-c3ccccc3F)s2)cc1
 : i	0.9	.	.	.	.	101
CN(C)c1nc(N(C)C)nc(N2CCCCC2)n1
 : i	0.86	-13	-0.7	-14	49	99
Cc1cc(SCC(=O)N2CCC(c3noc4ccc(F)cc34)CC2)nc2ccccc12
 : i	1.3	4	-0.5	19	83	97
O=C(NNC(=S)Nc1ccccc1C(F)(F)F)c1cccnc1
 : i	1	4	.	11	82	103
Cc1cccc(-c2nc(CN3CCCC(C(=O)NC4CCCCCC4)C3)c(C)o2)c1 (stereo not drawn)
 : i	0.76	2	-1.4	-171	119	110
O=C(c1ccc(Br)cc1)c1cc([N+](=O)[O-])ccc1N1CCCCC1
 : i	0.66	-1	0.0	-90	11	106

A run of entries taken from the entries so far, as a working copy:
Values run as follows: HSV replic up	HSV replic up primary fold	PKD1 kinase inh	GALR2 ag	INS promoter inh	INS promoter inh cell count	RGS16-Gao
Cc1cc(SCC(=O)N2CCC(c3noc4ccc(F)cc34)CC2)nc2ccccc12
 : i	1.3	4	-0.5	19	83	97
O=C(NNC(=S)Nc1ccccc1C(F)(F)F)c1cccnc1
 : i	1	4	.	11	82	103
Cc1cccc(-c2nc(CN3CCCC(C(=O)NC4CCCCCC4)C3)c(C)o2)c1 (stereo not drawn)
 : i	0.76	2	-1.4	-171	119	110
O=C(c1ccc(Br)cc1)c1cc([N+](=O)[O-])ccc1N1CCCCC1
 : i	0.66	-1	0.0	-90	11	106

Carrying on.
Values run as follows: HSV replic up	HSV replic up primary fold	PKD1 kinase inh	GALR2 ag	INS promoter inh	INS promoter inh cell count	RGS16-Gao
COc1ccc(/C(C)=C2/SC(=S)N(CCC(=O)O)C2=O)cc1
 : i	0.86	3	-2.4	-475	101	118
COc1ccc(NC(=S)NCc2cccs2)cc1
 : i	0.71	-5	.	.	.	101
CC1CCCN(C(=O)CCCn2c(=S)[nH]c3ccccc3c2=O)C1 (stereo not drawn)
 : i	0.64	-2	-2.3	-28	55	99
COc1cc(C(=O)ON=C2C=C(C)C(=O)C(C)=C2)cc(OC)c1OC
 : i	1.1	14	-0.8	25	99	96
O=C(C[n+]1cc(Br)cc(Br)c1)c1cccc([N+](=O)[O-])c1
 : i	0.89	10	.	.	.	95
Cc1cc(C)n(CC(=O)c2ccccc2)c(=O)c1C#N
 : i	0.81	-17	-3.9	.	.	98
COc1ccccc1NC(=O)N(C1CCCC1)C1CCN(C(C)=O)CC1
 : i	0.83	8	-0.7	.	.	112
CCOC(=O)N1CCC(NC(=O)CCCC(=O)O)CC1
 : i	1.4	.	.	.	.	94
Cc1cccc2nc(-c3cccnc3)c(Nc3ccccc3)n12
 : i	1	-2	.	.	.	100
Cc1oc(-c2ccccc2F)nc1CN1CCC(C(=O)NC2CC2)CC1
 : i	0.99	-8	-2.0	.	.	104
CCOC(=O)c1ccc(NC(=O)CSc2nnnn2CCCO)cc1
 : i	0.91	-3	-2.9	.	.	103
O=C(CSc1n[nH]c(-c2cccs2)n1)N1CCN(S(=O)(=O)c2ccc3ccccc3c2)CC1
 : i	1.1	0	-1.7	-57	115	104
O=C(c1cccc(Cl)c1)N1CCN(c2ccccn2)CC1
 : i	0.92	1	-2.0	-68	96	104
CCC(Sc1nc2c(cnn2-c2ccccc2)c(=O)[nH]1)C(=O)OC (stereo not drawn)
 : i	0.92	-14	-0.9	.	.	109
O=C(COC(=O)c1ccccc1Nc1ccccc1)NCc1ccco1
 : i	1	-3	-0.5	.	.	94
Cc1cccc(C(=O)N2CCC(=O)N(C(COCc3cccc(Cl)c3)Cc3ccccc3)CC2)c1 (stereo not drawn)
 : i	1.2	-3	-0.5	-24	80	105
O=C1N=C(N2CCCCC2)SC1=C1CCCCC1
 : i	0.95	-5	-1.5	30	105	117
C=CCn1c(SCC(=O)NCCOC)nc2scc(-c3ccco3)c2c1=O
 : .	.	-13	-1.2	.	.	104
CCc1ccccc1NS(=O)(=O)c1ccc2[nH]cc(C(=O)NCc3ccco3)c(=O)c2c1
 : .	.	0	-5.0	-11	73	94
COc1ccc(C(=O)Nc2ccccc2N2CCOCC2)cc1Br
 : .	.	1	-2.9	-100	134	.
O=C(CSc1nnc(-c2ccncc2)o1)NC1CCCCC1
 : i	0.92	-11	.	.	.	109
CCOC(=O)c1c(NC(=O)COc2cccc3c2CCN(CC)C3=O)sc2c1CCC2
 : i	0.94	-12	0.4	-39	128	104
O=C(CN1CCN(S(=O)(=O)c2ccc(Br)cc2)CC1)Nc1ccc2c(c1)OCO2
 : i	0.95	-3	-0.9	-44	135	99
CCC(C)Nc1nc(-c2cccc(OC)c2O)nc2ccccc12 (stereo not drawn)
 : i	0.8	-1	0.5	29	113	111
Cc1ccc(-c2csc(/C(C#N)=C(\O)CN3CCN(C(=O)c4ccco4)CC3)n2)cc1
 : i	1.1	-1	-1.6	25	137	100
Cc1nc2sc3c(c2c(=O)n1NC(=O)CCBr)CCCC3
 : i	0.95	1	.	.	.	103
Cc1ccc(Cc2cnc(NC(=O)C3=NCCN3)s2)cc1
 : i	0.94	6	.	.	.	102
CCN1CCN(C(=O)Nc2ccccc2OC)CC1
 : i	0.88	1	0.1	-7	89	103
CCOC(=O)c1sc(C(=O)OCC)c(OCCO)c1OCCO
 : i	0.97	-5	-0.6	.	.	20
O=C(C1Cc2ccccc2CN1S(=O)(=O)c1ccc(F)cc1)N1CCCCC1 (stereo not drawn)
 : i	1.1	3	-1.7	.	.	104
O=C(CCc1ccccc1)NC(=S)Nc1ccc(S(=O)(=O)N2CCOCC2)cc1
 : i	0.96	-9	-1.1	38	107	103
O=C1/C(=C/c2cccnc2)SC(=S)N1Nc1ccccc1
 : i	0.87	.	.	.	.	98
CC(C)(C)SCCNC(=O)COc1ccc(Cl)cc1
 : i	0.78	-1	-1.8	54	20	103
CSc1ccccc1NC(=O)COc1ccc(Cl)cc1Cl
 : i	1.2	-7	-0.9	.	.	112
CCN(CC)S(=O)(=O)c1ccc(C)c(NC(=O)Cn2c(=O)cnc3ccccc32)c1
 : i	0.97	8	0.0	-52	66	132
C=CCNC(=S)N1CCN(CCNC2=CC(=O)CC(C)(C)C2)CC1
 : i	1.1	.	.	.	.	95
c1ccc(CCNc2nc(-c3ccccn3)nc3ccccc23)cc1
 : i	0.77	.	.	.	.	102
COc1ccc(-c2nnc3ccc(SCC(=O)N4CCCCC4)nn23)cc1OC
 : i	1.1	-5	-0.1	.	.	105
Cc1nc(C)c(/C(O)=C/c2nc3ccccc3oc2=O)s1
 : i	0.98	5	-0.8	-7	55	84
O=CNn1cnc2c(oc3nc(-c4ccccc4)cc(-c4ccco4)c32)c1=O
 : i	0.83	-9	.	-61	79	110
CC(=O)c1ccc(C(=O)Nc2ccc(N3CCOCC3)cc2)cc1
 : i	0.96	-10	-3.7	-71	54	116
CCc1cc2c(C)ccc(C)c2nc1SCC(=O)Nc1c(C)[nH]c(=O)[nH]c1=O
 : i	0.97	-12	-1.1	31	55	92
CC(C)OC(=O)C(C)Nc1ccc(F)c(Cl)c1 (stereo not drawn)
 : i	0.98	.	.	.	.	101
Cc1nc(SCc2nc3ccccc3[nH]2)c2oc3ccccc3c2n1
 : i	0.91	-3	-0.9	45	104	129
CC(C)n1cc([C@@H]2C[C@H]3CN(Cc4cccc(Cl)c4)C(=O)[C@]34CCCN24)cn1
 : i	1.1	-8	.	-27	65	110

Screens from PubChem.
